rRNA inh HTS: inhibitors of bacterial rRNA selective over humanized ribosomes | E. coli WT GFP vs humanized-ribosome RFP mutants, fluorescence, 24 h; active compounds read low; DMSO median 0, no signal -100 | 350,000 tested, 1.6% active | GFP signal change (wild-type ribosome), % (concentration not given with the values);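 active means significant combined selectivity score with lowered wild-type GFP, culture density cut under 30%, mutant RFP and density less affected; inactive means any of these conditions unmet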; further: one replicate is shown; some compounds called inactive have numbers as strong as hits
FGF22 binding: shifts melting point of recombinant human FGF22; 340,000 tested, 1.5% active; recombinant FGF22 thermal shift, SYPRO orange fluorescence; percent of sucrose octasulfate shift, DMSO zero; AID 651658; Q9HCT0; calls only at 9.99 µM;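 active means melting point raised past a set limit in the mean and every replicate; inconclusive means no clear call; three in four hits are not shown here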
Target sequence (Q9HCT0 whole entry, looked up): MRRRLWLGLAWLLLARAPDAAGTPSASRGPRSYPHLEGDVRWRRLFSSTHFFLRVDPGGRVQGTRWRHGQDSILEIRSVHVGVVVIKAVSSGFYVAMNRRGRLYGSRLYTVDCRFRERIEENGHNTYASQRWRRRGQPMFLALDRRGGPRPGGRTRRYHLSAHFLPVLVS
MLL AF4-AF9 inh: blocks AF4 peptide binding to human AF9 | inhibition, % at 10 µM | 350,000 tested, 0.47% active | AlphaScreen, biotin-AF4 peptide binding to FLAG-AF9 | P42568;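 active means every replicate reaching a set inhibition limit, whatever the replicate mean, cut at about 25% in these data; inconclusive means mean inhibition reaches that limit but some replicates miss it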;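 further: 0% = plate neutral control median and 100% = total signal loss; the record names both 10 and 1 µM as test concentration; the first replicate is given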
Target sequence (P42568 whole entry, looked up): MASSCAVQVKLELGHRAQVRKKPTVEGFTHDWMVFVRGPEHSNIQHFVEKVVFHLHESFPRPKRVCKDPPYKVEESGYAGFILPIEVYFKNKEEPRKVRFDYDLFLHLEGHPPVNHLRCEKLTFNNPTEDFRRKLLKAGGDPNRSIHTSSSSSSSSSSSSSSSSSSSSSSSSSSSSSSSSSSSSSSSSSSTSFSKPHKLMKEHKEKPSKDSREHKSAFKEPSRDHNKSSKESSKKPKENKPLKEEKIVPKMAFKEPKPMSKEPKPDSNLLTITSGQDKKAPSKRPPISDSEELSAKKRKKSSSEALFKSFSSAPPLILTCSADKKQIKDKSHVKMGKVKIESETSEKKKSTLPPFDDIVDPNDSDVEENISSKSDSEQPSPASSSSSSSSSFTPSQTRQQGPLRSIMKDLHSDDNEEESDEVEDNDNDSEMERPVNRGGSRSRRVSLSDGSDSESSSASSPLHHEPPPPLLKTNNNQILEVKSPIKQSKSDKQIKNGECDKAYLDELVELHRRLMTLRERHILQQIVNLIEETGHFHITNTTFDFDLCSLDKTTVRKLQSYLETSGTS
Calb FLC: C. albicans growth modulation with fluconazole; C. albicans CaCi-2 (fluconazole-resistant clinical isolate) + fluconazole, Alamar Blue growth, 48 h; growth inhibition, % (test concentration not listed); 300,000 tested, 0.57% active;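 active means most replicates above 75%; inconclusive means exactly half above 75%; inactive means most below 75%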;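 further: all wells also contain fluconazole at 8 µg/ml as a sub-toxic cotreatment; 0% = median of DMSO wells and 100% = median of geldanamycin control wells; wells of about 8 µL received 7.5 nL stock; the first replicate is given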
Beta apoptosis: beta cell apoptosis inhibition; INS-1E cytokine-induced death, ATP luminescence, 48 h; percent of positive-control rescue, neutral wells zero; 300,000 tested, 0.8% active; protection from apoptosis, % (no concentration beside the values);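 active means all replicates at 75% or more, or half of them and the mean; inconclusive means half reach 75% but not the mean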;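 further: 0% = cytokine-treated negative control wells and 100% = positive control rescue; higher means more ATP so stronger rescue from cytokine killing; wells of about 40 µL received 100 nL stock; the first replicate is given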
RanGTP-Imp inh: disruptors of Ran-importin-beta complex formation – biochemical, FRET, CFP-Ran, YFP-importin-beta, homogeneous, primary screen. 300,000 tested, 1.1% active. inhibition, % (test concentration not listed). AID 2216. cell-free CFP-Ran/YFP-importin-beta FRET ratio;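 active means most replicates above 15%; inconclusive means exactly half above 15%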;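 further: 0% = DMSO wells and 100% = Ran loaded with GDP instead of GTP; wells of about 40 µL received 100 nL stock; the first replicate is given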
T cruzi repl: blocks replication of Trypanosoma cruzi. AID 1885. 300,000 tested, 1.4% active. inhibition, % (no concentration beside the values). T. cruzi beta-gal in NIH3T3, luminescence, 90 h;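 active means mean inhibition across valid replicates above about 55%, limit read from the data; inconclusive means mean below that limit but half or more replicates reach it; inactive means mean below it, under half of replicates reach it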;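 further: signal also drops with host cell toxicity which is not excluded here; 0% = plate median of DMSO wells and 100% = zero luminescence signal; higher percent means less beta-gal luminescence so fewer parasites; stock transfer was 50 nL into about 50 µL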
ALR H2O2 inh: human ALR oxidase inhibition via reduced H2O2. P55789. inhibition, % (test concentration not listed). purified ALR, DTT oxidation, H2O2 HRP-luminol luminescence. 290,000 tested, 3.8% active;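 active means mean and each replicate at 75% or more; inconclusive means only one of the two met; inactive means neither met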;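 further: stock transfer was 7.5 nL into about 7.5 µL; 0% = neutral wells and 100% = wells with inactivated enzyme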
Target sequence (P55789 whole entry, looked up): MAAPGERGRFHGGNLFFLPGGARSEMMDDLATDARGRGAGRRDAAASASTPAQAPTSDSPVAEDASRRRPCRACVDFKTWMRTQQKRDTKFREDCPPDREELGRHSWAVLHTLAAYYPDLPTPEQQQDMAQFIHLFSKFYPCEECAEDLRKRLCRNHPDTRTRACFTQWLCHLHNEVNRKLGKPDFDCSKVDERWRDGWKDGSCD
rRNA inh HTS OD600: further read-out of rRNA inh HTS, marked with its call; OD600 change, %; measured here: OD600 growth;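 optical density of the mix in the first replicate; 0 = DMSO median and -100 = no signal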
rRNA inh HTS RFP: further read-out of rRNA inh HTS, marked with its call; RFP signal change, %; measured here: RFP humanized mutant strains;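 first replicate; 0 = DMSO median and -100 = no signal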
Starred values were filed as active, the others as inactive; i = inactive; u = inconclusive; x = not tested or not shown; + = active, no number; & = joins results of further samples. Not all compounds are listed, so the mix of outcomes need not match the whole.

SMILES | rRNA inh HTS | rRNA inh HTS OD600 | rRNA inh HTS RFP | FGF22 binding | MLL AF4-AF9 inh | Calb FLC | Beta apoptosis | RanGTP-Imp inh | T cruzi repl | ALR H2O2 inh
O=C(/C=C/c1cccc(F)c1)Nc1ccc(S(=O)(=O)Nc2ncccn2)cc1 | 6 | 5 | -2.0 | i | -2.9 | -32 | -6 | -0.6 | 5 | 7
COc1ccccc1-n1cnnc1SCC(=O)N1CC(=O)Nc2ccccc21 | x | x | x | x | x | -2 | -7 | 4.3 | -15 | x
Cc1cc2ccccc2n1CCNC(=O)c1ccc(S(=O)(=O)N2CCCCC2)cc1 | -1 | -2 | 35 | i | 4.3 | 0 | -6 | 2.2 | -3 | -5
O=C(C1=C(O)C(=O)N(CCN2CCOCC2)C1c1cccc(O)c1)c1cc2ccccc2o1 (stereo not drawn) | 9 | 5 | 5.3 | i | -1.5 | 0 | x | 7.9 | -3 | x
COc1ccc(-n2nnnc2SCC(=O)Nc2ccc(OC)cc2OC)cc1 | -3 | -3 | -8.9 | i | -1.8 | -7 | -3 | u | 0 | -1
CCCOc1ccccc1/C=C1\SC(N2CCCCC2)=NC1=O | -18 | -12 | -3.9 | i | 0.2 | -5 | x | 9.1 | 10 | 3
Cc1nc(NC(=O)COc2ccc(Cl)cc2)sc1C(=O)N(C)C | 1 | -1 | 1.7 | i | -2.3 | 44 | 6 | 5.9 | -2 | -8
Cc1cc(C)[n+](-c2ccc(C(C)C)cc2)c2[nH]c(=O)[nH]c(=O)c12 | x | x | x | x | x | 1 | 1 | 0.7 | -6 | -1
O=c1c2ccccc2nc(/C=C/c2cccc([N+](=O)[O-])c2)n1CCCO | x | x | x | x | x | u | -7 | 0.8 | 5 | 13
CC1Oc2ccccc2N(CC(=O)NC2CCCCC2)C1=O (stereo not drawn) | 2 | -1 | -1.3 | i | -1.3 | -4 | 2 | -0.2 | -2 | -10
CCCCn1c(N)c(N(CCC(C)C)C(=O)c2ccc(COc3ccccc3)o2)c(=O)[nH]c1=O | 3 | 9 | 3.3 | i | -0.6 | -5 | -5 | -1.5 | 1 | 1
CCc1ccc(O)c(CNCCNCc2cc(CC)ccc2O)c1 | -51 | -78 | -28 | i | 11 | -8 | 23 | 1.7 | 47 | 52
Cc1ccc2cc(CN(Cc3ccco3)C(=O)C3CCCCC3)c(=O)[nH]c2c1C | x | x | x | x | x | -9 | 14 | 4.7 | -9 | -3
Cc1c(CCO)sc[n+]1CC(=O)OCCC12CC3CC(CC(C3)C1)C2 | -19 | -15 | 1.0 | i | -3.1 | -13 | -4 | -2.7 | 21 | -10
Cc1ccc2nc(-c3ccc(SCC(=O)Nc4nc(C)cs4)nc3)[nH]c2c1 | x | x | x | x | x | -5 | 13 | 0.4 | 29 | 15
O=c1c(-c2nnc(SCc3ccc(Cl)c(Cl)c3)o2)cccn1Cc1ccccc1 | x | x | x | x | x | 30 | 9 | 0.9 | 36 | 1
COC(=O)Oc1ccc(/C=N/NC(=O)CN(c2ccccc2Cl)S(C)(=O)=O)cc1OC | x | x | x | x | x | -16 | 3 | 0.9 | -7 | 32
OC(CN1CCN(c2cccc(C(F)(F)F)c2)CC1)c1c[nH]c2ccccc12 (stereo not drawn) | x | x | x | x | x | -14 | -5 | -1.0 | 19 | -3
CCN1C(=O)CC(N2CCC(Nc3ccc(F)cc3)CC2)C1=O (stereo not drawn) | x | x | x | x | x | 7 | 0 | 1.3 | -10 | x
COc1ccccc1-c1cc(C(F)(F)F)nc(N2CCCC2)n1 | x | x | x | x | x | -1 | 8 | u | 9 | 5
COc1ccccc1-n1c(CNc2c(C)cccc2C)nnc1SCC(=O)N1CCOCC1 | x | x | x | x | x | -2 | 0 | 4.6 | -24 | -6
O=C(O)CCCC(=O)Nc1ccc(Oc2cccc(C(F)(F)F)c2)nc1 | 6 | 5 | -0.9 | i | 1.9 | -6 | -4 | -4.2 | -2 | 1
CCNc1nc(C)cc(COC)c1C#N | x | x | x | x | x | -31 | 1 | 0.2 | -5 | -4
COc1cc(-c2nc(C)c(C(C)=O)n2O)ccc1OCC(=O)Nc1ccc(Cl)cc1 | -9 | -9 | 2.9 | + | 0.2 | -36 | 8 | -0.6 | 3 | 6
O=C(CCNC(=O)c1ccc([N+](=O)[O-])cc1)NCCC1=CCCCC1 | -2 | 11 | -3.4 | i | -3.5 | -14 | -2 | 1.1 | -2 | -15
O=C(COc1ccc(F)cc1)N(Cc1ccco1)C1CCS(=O)(=O)C1 (stereo not drawn) | 3 | 7 | -1.9 | i | 0.5 | 5 | 0 | 1.2 | -5 | -7
O=C(CC1C(=O)NCCN1Cc1c(F)cccc1Cl)NC1CCCCCC1 (stereo not drawn) | 3 | -2 | 0.1 | i | -14 | -11 | -5 | -0.8 | 11 | x
CC1(C)OC(=O)N(CC(=O)Nc2ccccc2)C1(C)O (stereo not drawn) | 8 | 5 | -0.2 | i | -1.6 | 24 | -7 | -0.1 | -5 | x
Nc1c(-c2ccc(F)cc2)cnn1C1CCS(=O)(=O)C1 (stereo not drawn) | x | x | x | x | x | 1 | -1 | -0.6 | -7 | 5
CN1CCN(CC(=O)Nc2cccc(S(=O)(=O)N(C)c3ccccc3)c2)CC1 | x | x | x | i | -0.7 | x | -4 | x | x | -3
CCC1(C)Cc2c(sc3c2c(=O)n(C)c2nnc(SCc4ccc5c(c4)OCO5)n32)CO1 (stereo not drawn) | x | x | x | x | x | -4 | 12 | -4.6 | 6 | -5
CCOc1ccc(C(=O)NCC(=O)N2CCC3CCCCC3C2)cc1OCC (stereo not drawn) | 2 | 3 | -0.5 | i | -3.1 | -1 | -4 | -1.2 | 5 | 1
CCC(=O)N1CCN(c2ccccc2NC(=S)NC(=O)c2cccc([N+](=O)[O-])c2)CC1 | -13 | -9 | 0.4 | i | 5.6 | 4 | 5 | 0.2 | 10 | x
O=C(COC(=O)[C@@H]1CCCN1C(=O)c1cccs1)Nc1cccc(Cl)c1 | -29 | -51 | -5.2 | i | -0.5 | x | -2 | x | x | 5
CC(NC(=O)Cn1cc(C(F)(F)F)cc(Cl)c1=O)c1ccccc1 (stereo not drawn) | 1 | 6 | -0.4 | i | -2.3 | 6 | 1 | -6.0 | -4 | 2
CC(C)NC(=O)COc1ccc2c(c1)C(=O)CC(C)(C)O2 | 7 | 5 | 2.0 | i | -2.0 | 0 | -5 | 1.0 | 6 | 2
Cc1ccc(C(=O)N/C(=C\c2ccco2)C(=O)NCC2CCCO2)cc1C (stereo not drawn) | x | x | x | x | x | -2 | -6 | 3.1 | -3 | x
O=C(O)c1cc(-c2ccco2)[nH]n1 | x | x | x | x | x | -11 | -8 | -1.0 | -16 | -15
COc1ccc(NC(=O)C2CCCN(S(=O)(=O)c3cccnc3)C2)c(OC)c1 (stereo not drawn) | -11 | -9 | -1.1 | i | -8.0 | 1 | 1 | -3.0 | -13 | x
CCC(c1nnnn1C(C)(C)CC)N(CCCN1CCOCC1)Cc1cc2cccc(C)c2[nH]c1=O (stereo not drawn) | x | x | x | x | x | -21 | -7 | -1.4 | 9 | 0
CS(=O)(=O)N(CC(=O)N1CCN(c2ccccc2)CC1)Cc1ccc(Cl)cc1 | x | x | x | x | x | 5 | 0 | 0.4 | 4 | 57
CCOC(=O)C1(Cc2ccccc2Cl)CCN(C(=O)CN2CCOC2=O)CC1 | 14 | 3 | -4.7 | x | -0.8 | -19 | -5 | 1.6 | -4 | -8
CC1CN(S(=O)(=O)c2ccc(C(=O)N(C)C3CCCCC3)cc2)CC(C)O1 (stereo not drawn) | 3 | 7 | 0.4 | i | -0.5 | x | 2 | x | x | x
CCOC(=O)c1sc(NC(=O)CSc2nnc(Cc3ccccc3)o2)c(C#N)c1C | x | x | x | x | x | 55 | 5 | 3.3 | -7 | 8
CCc1nnc(NC(=O)CN2C(=O)N(C)C3(CCCCC3)C2=O)s1 | 2 | 12 | 1.9 | i | -3.7 | x | -6 | x | x | x

A second format for some results above:
SMILES,rRNA inh HTS,rRNA inh HTS OD600,rRNA inh HTS RFP,FGF22 binding,MLL AF4-AF9 inh,Calb FLC,Beta apoptosis,RanGTP-Imp inh,T cruzi repl,ALR H2O2 inh
CCOC(=O)C1(Cc2ccccc2Cl)CCN(C(=O)CN2CCOC2=O)CC1,14,3,-4.7,x,-0.8,-19,-5,1.6,-4,-8
CC(NC(=O)Cn1cc(C(F)(F)F)cc(Cl)c1=O)c1ccccc1 (stereo not drawn),1,6,-0.4,i,-2.3,6,1,-6.0,-4,2

Continuation.
SMILES | rRNA inh HTS | rRNA inh HTS OD600 | rRNA inh HTS RFP | FGF22 binding | MLL AF4-AF9 inh | Calb FLC | Beta apoptosis | RanGTP-Imp inh | T cruzi repl | ALR H2O2 inh
Nc1nnc(SCCCC(=O)c2ccc(F)cc2)s1 | 4 | 2 | -6.7 | i | 1.1 | 2 | -1 | -1.1 | 2 | -23
Cc1cc(C)cc(N=C2NC(=O)CS2)c1 | 7 | 7 | 1.4 | i | 1.3 | 6 | 0 | 1.3 | -3 | -6
CNC(=O)c1c(NC(=O)c2cccc(C)c2)sc2c1CCC2 | -18 | -15 | 20 | i | -0.2 | 45 | 9 | u | 30 | 95*
Cc1ccc(CNS(=O)(=O)c2ccc3c(c2)n(C)c(=O)n3C)cc1 | 1 | -8 | 2.2 | i | 2.1 | 5 | 10 | 6.8 | -22 | -1
CCSc1cnc(-c2ccccc2)n1CC | x | x | x | x | x | -27 | -2 | 1.4 | 4 | -5
Cn1cc(C(=O)NCCO)c(=O)c2ccccc21 | 0 | 3 | -2.4 | i | 0.7 | -3 | -1 | u | -3 | 6
Cc1ccc2nc(-c3ccccc3)c(CC(=O)O)c(C(=O)O)c2c1 | 22 | 14 | 5.7 | i | 3.7 | 29 | -2 | 4.0 | 7 | -2
Cc1ccc(CNC(=O)CC(C)S(=O)(=O)c2ccc3c(c2)NC(=O)CS3)o1 (stereo not drawn) | 11 | 7 | 2.7 | i | -3.0 | 1 | 10 | -3.1 | -34 | 98*
Cc1cc(C(=O)NCCCN2CCCC2=O)cs1 | x | x | x | x | x | -1 | -7 | 3.9 | -13 | -2
Cc1ccc(C)c(NC(=S)N(Cc2cccc(Br)c2)CC2CCC(C(=O)O)CC2)c1 (stereo not drawn) | -15 | -12 | -2.2 | i | -0.8 | 25 | 0 | -2.5 | 9 | 49
COc1ccc(OC)c(C2C(C(=O)c3ccco3)=C(O)C(=O)N2Cc2cccnc2)c1 (stereo not drawn) | 10 | 10 | 1.1 | i | -0.6 | x | -6 | x | -14 | -2
O=[N+]([O-])c1ccc(NCCCN2CCOCC2)c(Cl)c1 | x | x | x | x | x | -4 | -3 | -3.0 | 11 | -2
COc1cc(C(=O)NCCCCCCNC(=O)c2cc(OC)c(OC)c(OC)c2)cc(OC)c1OC | 9 | 4 | -0.8 | i | 2.5 | -3 | -1 | -5.1 | 1 | -11
C[C@H](CO)N1C[C@H](C)[C@@H](CN(C)S(C)(=O)=O)Oc2ccc(N(C)C)cc2C1=O | 1&11 | 10&10 | -1.5&-3.2 | i | -5.2&-4.4 | x | 2 | x | x | 6
CN(C(=O)COC(=O)c1ccc(C#N)cc1)c1ccccc1 | 11 | 11 | 0.4 | i | -0.1 | 4 | x | -2.1 | 5 | -7

Assay outcomes from PubChem BioAssay.
